Cruzain Triton: cruzain (T. cruzi) inhibition with detergent; P25779; purified cruzain, Z-FR-AMC fluorescence, 0.01% Triton; Potency, µM, for inactives: max response, negative = inhibition, actives largely listed as inhibitors; hit rate 0.43% among 200,000; AID 1478;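 further: plate controls were neutral wells for no effect and buffer without enzyme for full effect; nearly all actives have a fitted effect of over 40% in size; top concentration of the series not given in the record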
Target sequence (P25779 123-467 limits assumed): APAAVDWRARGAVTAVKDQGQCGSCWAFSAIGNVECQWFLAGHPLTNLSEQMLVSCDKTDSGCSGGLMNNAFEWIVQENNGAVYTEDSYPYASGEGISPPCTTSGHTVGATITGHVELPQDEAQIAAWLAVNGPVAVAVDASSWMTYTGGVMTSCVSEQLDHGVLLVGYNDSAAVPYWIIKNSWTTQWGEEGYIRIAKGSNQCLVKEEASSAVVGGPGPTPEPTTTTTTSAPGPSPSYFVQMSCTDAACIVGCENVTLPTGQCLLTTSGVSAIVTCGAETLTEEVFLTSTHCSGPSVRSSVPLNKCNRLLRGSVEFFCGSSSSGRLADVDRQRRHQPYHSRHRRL
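Enzyme 1.5 nM, Z-FR-AMC 2 uM, NaOAc 100 mM pH 5.5, DTT 5 mM, Triton X-100 0.01%; 15 min RT compound preincubation; kinetic ex360/em450, 60 s delta.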
StopGo reporter: FMDV 2A StopGo reporter, luciferase signal; human cells with a luciferase reporter of 2A StopGo recoding; control for the full effect not named in the record; Potency, µM (highest dose often 57.9 µM), inactives show at the highest dose signal change, negative = less light; hit rate 1.2% among 410,000; AID 1159524; active = well fitted falling curve with a large enough effect; inconclusive = small, poorly fitted or top-dose-only effect; inactive = no such curve, though single readings can be large or run the other way; tested in HEK293T cells; further: on the % scale 0 is the no-effect control and ±100 the full control effect; nearly all actives have a fitted effect of over 45% in size; luciferase light after 4 h
Cruzain inh noDet: blocks cruzain activity in detergent-free assay; hit rate 2.3% among 200,000; purified cruzain, Z-FR-AMC fluorescence, no detergent; Potency, µM, inactives show max response, negative = inhibition, usual class: inhibitors; P25779; AID 1476;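 further: plate controls were enzyme without inhibitor for no effect and buffer without enzyme for full effect; nearly all actives have a fitted effect of over 40% in size; top concentration of the series not given in the record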
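Detergent-free condition (0.00005% Triton X-100) in acetate buffer pH 5.5 with DTT. 1.5 nM enzyme and compound were pre-mixed 15 min, then 2 uM Z-FR-AMC substrate added; reaction progress from fluorescence change between first and third reads (60 s).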
SARS PLpro yeast: SARS-CoV PLP inhibition in yeast | Potency, µM (series often up to 32.9 µM), for the others: at the top dose activity, positive = growth rescue | S. cerevisiae expressing SARS-CoV PLpro, growth rescue; control for the full effect not named in the record | hit rate 0.19% among 330,000; active means well fitted rising curve with a large enough effect; inconclusive means small, poorly fitted or top-dose-only effect; inactive means no such curve, though single readings can be large or run the other way; further: 0% is about no effect; nearly all actives have a fitted effect of over 55% in size; growth read by luminescence after 48 h
RE007 growth inh: less growth of the S. pombe RE007 Vpr strain. S. pombe RE007 Vpr strain, BacTiter-Glo ATP luminescence, 24 h; control for the full effect not named in the record. Potency, µM (titrated, usually from 92.2 µM), inactives show at the highest dose activity change, negative = less growth. hit rate 0.21% among 360,000. AID 651644; active = well fitted falling curve with a large enough effect; inconclusive = small, poorly fitted or top-dose-only effect; inactive = no such curve, though single readings can be large or run the other way;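 further: on the % scale 0 is the no-effect control and ±100 the full control effect; nearly all actives have a fitted effect of over 50% in size; the assay follows cell death caused by Vpr and the record does not say whether a fall means rescue or toxicity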
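Fission yeast RE007 carrying one integrated HIV-1 vpr copy, seeded at OD 0.01 in PMG+AL medium with 23 nL pinned compound. Grown 24 h at 30 degrees; viability read by BacTiter-Glo luminescence after 5 min.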
Lassa entry inh: blocks Lassa virus binding to or entry into cells; Lassa virus pseudotype entry inhibition, cell reporter; control for the full effect not named in the record; Potency, µM (top dose mostly 37.9 µM), for the others: top-dose activity change, negative = inhibition, most hits filed as inhibitors; hit rate 1.2% among 300,000; active means well fitted inhibition curve with a large enough effect; inconclusive means small, poorly fitted or top-dose-only effect, or effect the other way; inactive means flat fitted curve, though single readings scatter; tested in HEK293 cells; further: on the % scale 0 is the no-effect control and ±100 the full control effect; nearly all actives have a fitted effect of over 50% in size; luciferase read-out
NS1 function inh: influenza NS1 inhibition | AID 2326 | S. cerevisiae slowed by influenza A NS1, growth recovery by OD600 | Potency, µM (top dose mostly 46.1 µM), without a hit: at the top dose activity, positive = more growth | hit rate 0.4% among 270,000; active means well fitted rising curve with a large enough effect; inconclusive means small, poorly fitted or top-dose-only effect; inactive means no such curve, though single readings can be large or run the other way; further: nearly all actives have a fitted effect of over 50% in size
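Growth recovery, yeast-based: influenza A NS1 expressed in S. cerevisiae causes slow growth, and suppressors are detected by OD600. The parent strain without NS1 is used as positive control.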
Marburg entry inh: blocks Marburg virus binding to or entry into cells; Marburg virus pseudotyped entry inhibition, cell reporter; control for the full effect not named in the record; about a third of the inactives were read at about 46 µM; hit rate 1.8% among 300,000; Potency, µM (doses to about 37.8 µM), without a hit: at the highest dose activity change, negative = inhibition, actives largely listed as inhibitors; active = well fitted inhibition curve with a large enough effect; inconclusive = small, poorly fitted or top-dose-only effect, or effect the other way; inactive = flat fitted curve, though single readings scatter; tested in HEK293 cells; about a fifth of its hits are not listed in these tables; further: on the % scale 0 is the no-effect control and ±100 the full control effect; luciferase read-out
* hit, by the source's call; ? = inconclusive; / = no result given; & = joins results of further samples; [ ] = remark or other dose. Unless noted, the call rests on the fitted dose curve; in most records, active means well fitted curve in the direction sought with a large enough effect; inconclusive means small, poorly fitted or top-dose-only effect, or another doubt; inactive means no such curve, though single readings can be large; an effect the other way counts as inactive or inconclusive. Potency means the concentration at half of the fitted maximal effect.

SMILES	Cruzain Triton	StopGo reporter	Cruzain inh noDet	SARS PLpro yeast	RE007 growth inh	Lassa entry inh	NS1 function inh	Marburg entry inh
Cc1ccc(S(=O)(=O)N(NC2=NS(=O)(=O)c3ccccc32)C(=O)c2ccccc2)cc1	-6.3%	4%	-2%	1%	/	3%	9%	4%
CC(c1ccccc1)n1c(N2CCNCC2)nc2c1c(=O)[nH]c(=O)n2C (stereo not drawn)	/	-8%	/	-4%	3%	/	3%	/
COc1ccc(-c2cc(=Nc3ccc(C)cc3)c3ccccc3o2)cc1	-6.6%	0%	-10%	-14%	?	?	0%	?
COc1cc(C(=O)OCC(C)=O)c([N+](=O)[O-])cc1OC	/	-7%	/	1%	13%	0%	3%	22%[46.1 µM]
Cc1cccc(N2CCN(C(=O)c3ccc(NC4=NC5CS(=O)(=O)CC5S4)cc3)CC2C)c1 (stereo not drawn)	/	-9%	/	0%	-7%	-2%[46.1 µM]	-8%	7%[46.1 µM]
CCOc1cc(C(=O)OCc2ccc([N+](=O)[O-])cc2)ccc1OCC(=O)N1CCOCC1	/	-29%	/	/	3%	?	/	-1%
COc1ccc(NC(=O)COC(C)=O)cc1Cl	-0.3%	-10%	0%	-12%	-10%	2%	-10%	1%
COc1ccc(C(CC(=O)N2CCCC2)c2ccc(F)cc2)cc1 (stereo not drawn)	/	-3%	/	9%	-4%	-10%[46.1 µM]	-5%	?
CCOc1ccccc1N1C(=O)CN(Cc2ccc(OC)c(OC)c2)C1=S	/	-23%	/	-1%	-25%	/	-3%	/
Cc1ccc(C(=O)/C=C/c2ccc(F)cc2)o1	-10%	-22%	1%	-17%	?	?	-43%	?
COc1ccc(CNC(=S)NCc2ccc(Cl)cc2)cc1OC	/	-10%	/	-5%	7%	?	18%	-3%[46.1 µM]
O=C(Oc1cccc(N2C(=O)CCC2=O)c1)C1CC(=O)N(c2ccc(Br)cc2)C1 (stereo not drawn)	-3.4%	/	9%	-5%	8%	5%	-26%	8%
CC(=O)Nc1ccc(S(=O)(=O)N(C)c2nc3ccccc3nc2Cl)cc1	/	?	/	-2%	4%	?	10%	4%[46.1 µM]
COc1cc(C2NC(=S)NC(O)(C(F)(F)F)C2C(=O)c2cccs2)cc(OC)c1O (stereo not drawn)	-4.7%	-6%	0%	19%	-21%	7%	1%	20%
CCc1ccc(Nc2cc(C)nc3nc(C)nn23)cc1	-1.0%	-10%	5%	?	18%	-7%	-37%	-1%
COc1ccc(N(CC(=O)NCC(C)C)S(=O)(=O)c2ccccc2)cc1	/	37%[activator]	/	0%	-9%	13%	-7%	?
CCOC(=O)C1=C(C)C(c2ccccc2O)NC(=O)N1 (stereo not drawn)	5.3%	-6%	5%	14%	7%	23%	-1%	0%
CC(C)c1ccc(NC(=O)C(C)N(c2ccccc2)S(C)(=O)=O)cc1 (stereo not drawn)	-9.6%	-17%	3%	/	/	-20%[46.1 µM]	/	-25%[46.1 µM]
CCOc1ccc(N2CC(C)Cn3c2nc2c3c(=O)n(CC(=O)O)c(=O)n2C)cc1 (stereo not drawn)	-1.4%	-10%	1%	/	/	-8%[46.1 µM]	/	-19%[46.1 µM]
O=C(CSc1ccc(F)cc1)Nc1ccccc1Br	/	46%[activator]	/	-5%	22%	0%	/	4%
COc1cccc(NC(=O)C2CC(=O)N=C(N)S2)c1 (stereo not drawn)	5.0%	1%	2%	-2%	-2%	13%	4%	1%
O=C(CN1CCN(C(=O)c2ccco2)CC1)Nc1ccccc1	/	21%	/	3%	-4%	-6%[46.1 µM]	-6%	-2%[46.1 µM]
CC(=O)N1CC(C)Oc2ccc(S(=O)(=O)NC(CC(=O)O)c3ccccc3C)cc21 (stereo not drawn)	/	-3%	/	0%	11%	/	1%	/
COc1ccc(N2CC(C(=O)N3CCC(c4nc5ccccc5[nH]4)CC3)CC2=O)cc1 (stereo not drawn)	/	-7%	/	2%	-13%	-1%	/	16%
C=CCOC(=O)C1=C(C)NC(SCC(=O)NC(=O)OCC)=C(C#N)C1c1cccnc1 (stereo not drawn)	-0.6%	-4%&-5%	0%	-1%	3%&12%	21%&17%	3%	-10%&16%
O=C(CCS(=O)(=O)Cc1ccccc1)NCc1ccco1	-1.5%	/	-1%	3%	-5%	8%	-7%	17%
CCC(CC)N1CCN(C(=O)c2cc(OC)c(OC)c(OC)c2)CC1	/	-19%	/	2%	0%	/	9%	/
O=C(CSc1nc(C2CC2)nc2ccccc12)N1CCCCC1	/	-15%	/	-2%	3%	-30%[46.1 µM]	-21%	?
Cc1ccc(-n2cc(CNCCN3CCOC3=O)c(-c3cccc(C)c3)n2)cc1	/	19%	/	-1%	-5%	?	-4%	?
Cc1ccccc1C1CCCN(Cc2nc(C3CC3)no2)C1 (stereo not drawn)	/	-15%	/	-1%	36%	-29%	-11%	-2%[46.1 µM]
CCCCCCCCC(=O)NCCOc1ccc(OC)cc1	-3.4%	-7%	17%	-4%	8%	7%	-1%	0%
NC(=O)COC(=O)CSc1ccc2ccccc2c1	/	-13%	/	-5%	-25%	3%[46.1 µM]	/	-1%[46.1 µM]
CCC(=O)c1ccc(OCC(O)CN2CCCCC2)cc1 (stereo not drawn)	9.5%	17%	-1%	1%	1%	18%	/	0%
CSc1nnc2ccc(-c3ccc(C)cc3)nn12	/	23%	/	-24%	19%	/	-12%	/
O=C(CCl)Oc1ccc2occ(C(=O)c3cccs3)c2c1	-18%	82%[activator]	-22%	-22%	-21%	18%	-33%	8%
O=C(Cc1ccc(F)cc1)NCCS(=O)(=O)N1CCN(c2cccc(Cl)c2)CC1	/	-15%	/	-3%	0%	9%	/	-22%
CCn1c(COc2ccccc2OC)nnc1SCC(=O)NC1CCCC1	/	0%	/	0%	-7%	-10%	-6%	-3%[46.1 µM]
O=C(CSc1cccc[n+]1[O-])NC1CCCCCCC1	/	6%	/	-2%	-4%	23%	/	?
CCN(CCO)Cc1cc(=O)oc2cc3c(cc12)CCC3	/	1%	/	-5%	-6%	16%	/	10%
CN(CCCNC(=O)CSc1cc(=O)n(C)c2cc(Cl)ccc12)Cc1ccccc1	/	9%	/	2%	3%	4%[46.1 µM]	/	?
CCOc1cc(CNCc2ccccn2)ccc1OCC(=O)NC1CCCCC1	0.9%	-15%	24%	4%	?	10%	-2%	2%
CS(=O)(=O)c1sc(C(=O)NC(=S)Nc2ccc(OC(F)(F)F)cc2)c2c1C=CCC2	/	-18%	/	-1%	-6%	4%[46.1 µM]	-4%	-2%[46.1 µM]
Cc1ccc(CS(=O)(=O)Cc2ccc(C(=O)NCc3ccco3)o2)cc1	0.9%	-25%	4%	-4%	-14%	?	1%	7%
CCN(Cc1nc2ccccc2c(=O)[nH]1)C(=O)c1cccc(NC(=O)c2cccs2)c1	/	-23%	/	3%	0%	-19%[46.1 µM]	/	-23%
Cc1cc(C(=O)COC(=O)c2n[nH]c3ccccc23)c(C)n1C	-7.2%	-39%	1%	-2%	-8%	?	-26%	?
COc1cccc(-c2nnc(SCC(=O)N(C(C)C)C(C)C)o2)c1	10%	25%	-4%	-6%	2%	?	-39%	5%
Cc1ccc(S(=O)(=O)NC2=NCN(C)CN2)cc1[N+](=O)[O-]	/	8%	/	-6%	4%	6%[46.1 µM]	4%	18%[46.1 µM]
CCOC(=O)N/N=C/c1ccc(OCCSc2ccc(Cl)cc2)c(OCC)c1	-7.8%	-12%	1%	-11%	-11%	?	-19%	?
CCn1nnc2sc3c(c2c1=O)CCC(C)C3 (stereo not drawn)	-4.3%	70%[activator]	0%	-4%	-12%	?	-52%	6%[46.1 µM]
CCc1nn(C(C)C(=O)N2CCN(c3ccccc3)CC2)c(=O)c2cc3occc3n12 (stereo not drawn)	-5.6%	-15%&-27%	13%	0%	8%	-22%[46.1 µM]	-1%	-13%&-13%[46.1 µM]
O=C(CSc1ncn[nH]1)NCc1ccc2c(c1)OCO2	/	10%	/	-1%	23%	-22%	/	11%[46.1 µM]
Cc1ccc(NC(=S)N2CCCC2)cc1Cl	/	29%	/	2%	-9%	?	-4%	19%[46.1 µM]
COC(=O)c1cc(NC(=O)CC2SCCNC2=O)cc(C(=O)OC)c1 (stereo not drawn)	-0.1%	-18%	12%	/	-3%	0%	6%	3%
O=C(NCC(O)CO)c1ccc2[nH]c3ccccc3c2c1 (stereo not drawn)	-0.2%	1%	-29%	10%	0%	1%	9%	-3%
CC(C)(C)NC(=O)c1ccc2nc(CCc3ccccc3)oc2c1	-2.5%	27%	8%	/	/	-10%[46.1 µM]	/	/
COc1cccc(NC(=O)C2C3CC4OC(=O)C2C4C3)c1 (stereo not drawn)	0.8%	-2%	0%	3%	2%	9%	13%	?
N#Cc1cnn2ccc(-c3cc(N4CCOCC4)ccc3[N+](=O)[O-])nc12	/	0%	/	-1%	11%	0%	/	12%[46.1 µM]
Cc1ccc2nc(-c3ccc(NC(=O)COC(=O)c4ccc(Br)o4)cc3)sc2c1	-0.9%	?	13µM*	-10%	2%	5.6µM*	7%	?
CCc1cccc2c1NC(=O)C2=O	/	40%[activator]	/	/	-3%	?	/	-20%[46.1 µM]
O=C(O[C@@H](C(=O)O)[C@@H](OC(=O)c1ccccc1)C(=O)O)c1ccccc1	3.6%	-8%	6%	-13%	-19%	/	/	/

(list continues)
SMILES	Cruzain Triton	StopGo reporter	Cruzain inh noDet	SARS PLpro yeast	RE007 growth inh	Lassa entry inh	NS1 function inh	Marburg entry inh
COc1ccccc1OCC(=O)NCC(c1ccc(Cl)cc1)N1CCCCC1 (stereo not drawn)	-1.7%	-20%	-4%	/	/	-15%[46.1 µM]	/	?
O=C(COC(=O)c1cccc(S(=O)(=O)N2CCOCC2)c1)NCc1ccccc1	/	2%	/	-7%	-25%	4%	/	-1%
CC(C)CCOCC(=O)Nc1cccc(C(=O)O)c1	5.1%	-28%	-6%	-1%	14%	?	0%	?
CN(C)S(=O)(=O)c1ccc(Cl)c(C(=O)Nc2cccc3ncccc23)c1	/	-18%	/	2%	-9%	-16%	17%	-25%

Compound activity from PubChem BioAssay.
